H5N1 CPE – antiviral screen in MDCK cells, H5N1 avian flu | cytopathic effect, luminescence, 72 h; active compounds read high; no value below 0 was filed and about half of the inactive calls have no number; reference of the scale not given here | inhibition, % at 50 µM | 0.07% of 96,000 active | AID 740; in the data active means inhibition above about 25%
* = called active by the depositor.

How did C=CCNc1nc(-c2ccc(O)c(C(N)=O)c2)cs1 do in these assays?
H5N1 CPE: 0.3

What do the screens show for `Cc1cc(C(=O)CSc2nncs2)c(C)n1-c1c(C)n(C)n(-c2ccccc2)c1=O`?
H5N1 CPE: inactive

Results for COc1ccc(C(=O)CSc2nnc(-c3ccc(C)cc3)o2)cc1 ?
H5N1 CPE: 0.4

Results for O=C(COC(=O)CCc1c[nH]c(=O)[nH]1)Nc1cccc(Cl)c1 ?
H5N1 CPE: inactive

Results for Cc1nn(CCOc2ccccc2)c(=O)n1-c1cccc(F)c1 ?
H5N1 CPE: inactive

What do the screens show for `Cc1c(OCc2nn[nH]n2)ccc2c3c(c(=O)oc12)CCCC3`?
H5N1 CPE: 1.6

How did O=C(c1ccc(Cl)c(S(=O)(=O)NCc2ccco2)c1)N1CCN(c2ccccc2F)CC1 do in these assays?
H5N1 CPE: 0.5

Results for COc1ccc(CN2CCOCC2)cc1 ?
H5N1 CPE: 0.1

Results for CC1Cc2nc(SCC(=O)Nc3ccc4c(c3)OCO4)n(CCc3ccccc3)c(=O)c2S1 (configuration not stated) ?
H5N1 CPE: inactive

How did O=C(c1ccccc1Oc1nnnn1-c1ccccc1)N1CCOCC1 do in these assays?
H5N1 CPE: inactive

How did O=C(COC(=O)C1CCN(S(=O)(=O)c2cccs2)CC1)c1cc2ccccc2o1 do in these assays?
H5N1 CPE: 0.7

Results for CCC(C)(C(=O)NC1CCCC1)N(Cc1ccco1)C(=O)c1ccccn1 (configuration not stated) ?
H5N1 CPE: inactive

2 records picked at random from those above:
How did O=C(c1ccccc1Oc1nnnn1-c1ccccc1)N1CCOCC1 do in these assays?
H5N1 CPE: inactive

What do the screens show for `Cc1c(OCc2nn[nH]n2)ccc2c3c(c(=O)oc12)CCCC3`?
H5N1 CPE: 1.6

The listing picks up; the 2 compounds before the break are reprinted first.
How did O=C(COC(=O)C1CCN(S(=O)(=O)c2cccs2)CC1)c1cc2ccccc2o1 do in these assays?
H5N1 CPE: 0.7

Results for CCC(C)(C(=O)NC1CCCC1)N(Cc1ccco1)C(=O)c1ccccn1 (configuration not stated) ?
H5N1 CPE: inactive

How did Cc1onc(-c2ccccc2Cl)c1C(=O)Nc1cccc2cccnc12 do in these assays?
H5N1 CPE: inactive

Results for COc1ccc(-c2nc3ncccn3c2Nc2ccc3c(c2)OCCO3)cc1 ?
H5N1 CPE: 0.2

How did CC(c1ccccc1)n1cc(C(=O)NCc2cccnc2)nn1 (configuration not stated) do in these assays?
H5N1 CPE: 0.3

What do the screens show for `Cc1ccc(S(=O)(=O)NCCc2ccccc2)cc1`?
H5N1 CPE: 0.5

How did CC(=O)Nc1nonc1NC(=O)CSc1ccccn1 do in these assays?
H5N1 CPE: 1.6

What do the screens show for `CCN(CC)C(=O)CSc1nnc(-c2cccc(OC)c2)o1`?
H5N1 CPE: 0.6

How did COC(=O)C1=NN(N=O)C2(CC(=O)N(c3cc(C)cc(C)c3)C2=O)C1 (configuration not stated) do in these assays?
H5N1 CPE: inactive

How did O=C(Nc1ccn(Cc2ccccc2F)n1)c1ccc(COc2ccc(Cl)cc2Cl)o1 do in these assays?
H5N1 CPE: inactive

What do the screens show for `Cc1ccc(S(=O)(=O)N2CCC(C(=O)Nc3nnc(-c4ccco4)s3)CC2)cc1`?
H5N1 CPE: inactive

What do the screens show for `O=C(c1cc2nc(-c3ccco3)cc(C(F)(F)F)n2n1)N1CCN(c2ccccc2)CC1`?
H5N1 CPE: inactive

How did Cc1cc(C)cc(N2C(=O)C3C4C=CC(C4)C3C2=O)c1 (configuration not stated) do in these assays?
H5N1 CPE: 0.8

Gathered by group, the compounds so far containing a furan ring, fused or not
How did O=C(c1ccc(Cl)c(S(=O)(=O)NCc2ccco2)c1)N1CCN(c2ccccc2F)CC1 do in these assays?
H5N1 CPE: 0.5

How did O=C(COC(=O)C1CCN(S(=O)(=O)c2cccs2)CC1)c1cc2ccccc2o1 do in these assays?
H5N1 CPE: 0.7

Results for CCC(C)(C(=O)NC1CCCC1)N(Cc1ccco1)C(=O)c1ccccn1 (configuration not stated) ?
H5N1 CPE: inactive

How did O=C(Nc1ccn(Cc2ccccc2F)n1)c1ccc(COc2ccc(Cl)cc2Cl)o1 do in these assays?
H5N1 CPE: inactive

What do the screens show for `Cc1ccc(S(=O)(=O)N2CCC(C(=O)Nc3nnc(-c4ccco4)s3)CC2)cc1`?
H5N1 CPE: inactive

What do the screens show for `O=C(c1cc2nc(-c3ccco3)cc(C(F)(F)F)n2n1)N1CCN(c2ccccc2)CC1`?
H5N1 CPE: inactive

Source: PubChem (SRMLSC)

Not all compounds are listed; count on the stated rates, not on these rows.
